# FGF22 binding = FGF22 (human) thermal shift binding; calls only at 9.99 µM; Q9HCT0; 340,000 compounds, 1.5% hits; recombinant FGF22 thermal shift, SYPRO orange fluorescence; percent of sucrose octasulfate shift, DMSO zero;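 active = melting point raised past a set limit in the mean and every replicate; inconclusive = no clear call; three in four hits are not shown here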
# Target sequence (Q9HCT0 whole entry, looked up): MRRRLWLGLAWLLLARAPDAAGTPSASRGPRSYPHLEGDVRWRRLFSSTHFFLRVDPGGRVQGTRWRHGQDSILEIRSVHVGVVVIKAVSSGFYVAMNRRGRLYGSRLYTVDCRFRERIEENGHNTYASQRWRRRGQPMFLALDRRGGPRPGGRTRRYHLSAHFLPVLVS
# MLL AF4-AF9 inh = blocks AF4 peptide binding to human AF9; P42568; AlphaScreen, biotin-AF4 peptide binding to FLAG-AF9; inhibition, % at 10 µM; 350,000 compounds, 0.47% hits;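 active = every replicate reaching a set inhibition limit, whatever the replicate mean, cut at about 25% in these data; inconclusive = mean inhibition reaches that limit but some replicates miss it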;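 also: 0% = plate neutral control median and 100% = total signal loss; the record names both 10 and 1 µM as test concentration; the first replicate is given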
# Target sequence (P42568 whole entry, looked up): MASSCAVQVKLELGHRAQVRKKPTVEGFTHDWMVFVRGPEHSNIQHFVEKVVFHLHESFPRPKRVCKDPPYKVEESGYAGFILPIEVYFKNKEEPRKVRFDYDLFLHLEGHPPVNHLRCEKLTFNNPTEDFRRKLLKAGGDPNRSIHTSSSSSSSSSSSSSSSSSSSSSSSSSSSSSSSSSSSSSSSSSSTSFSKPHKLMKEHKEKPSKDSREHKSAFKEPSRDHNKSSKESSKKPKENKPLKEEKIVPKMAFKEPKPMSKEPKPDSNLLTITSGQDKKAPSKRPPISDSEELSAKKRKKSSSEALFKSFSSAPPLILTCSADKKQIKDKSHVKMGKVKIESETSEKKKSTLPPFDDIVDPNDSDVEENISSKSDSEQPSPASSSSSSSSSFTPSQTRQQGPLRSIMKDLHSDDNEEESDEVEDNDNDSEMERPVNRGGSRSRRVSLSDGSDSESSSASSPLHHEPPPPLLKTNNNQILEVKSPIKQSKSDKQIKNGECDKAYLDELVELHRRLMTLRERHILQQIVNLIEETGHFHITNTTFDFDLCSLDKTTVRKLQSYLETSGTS
# Bfl-1 A1 inh = inhibitors of the anti-apoptotic protein A1, read as caspase activation | MEF A1-2A-BIM cells, Caspase-Glo 3/7 luminescence, 3 h; percent of clofoctol response, vehicle zero | caspase activation, % (concentration not given with the values) | 330,000 compounds, 0.066% hits;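 active = over half of replicate activation scores above 10%, or exactly half above 10 with the replicate mean above 10; inconclusive = replicate mean below 10 yet half the replicates above 10; inactive = over half of replicates below 10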;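 also: wells of about 30 µL received 50 nL stock; many hits fall short of the cut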
# Ecoli growth = E. coli growth inhibition; OD600 absorbance (no concentration beside the values); 330,000 compounds, 0.21% hits; AID 1053175; Escherichia coli growth, OD600, 23 h; stronger effect = lower value;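 active = OD600 absorbance below the run mean of sample wells minus 3.6 SD, in any replicate, cut at about 0.56 in these data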;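 also: stock transfer was 300 nL into about 60 µL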
# T cruzi inh = blocks replication of Trypanosoma cruzi. T. cruzi beta-gal in NIH3T3, luminescence, 90 h. inhibition, % (no concentration beside the values). 300,000 compounds, 1.4% hits;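 active = mean inhibition across valid replicates above about 55%, limit read from the data; inconclusive = mean below that limit but half or more replicates reach it; inactive = mean below it, under half of replicates reach it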;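 also: signal also drops with host cell toxicity which is not excluded here; 0% = plate median of DMSO wells and 100% = zero luminescence signal; higher percent means less beta-gal luminescence so fewer parasites; stock transfer was 50 nL into about 50 µL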
# UCH37 DUB inh = blocks the human deubiquitinase UCH37; Q9Y5K5; purified proteasome/UCH37, Ub-AMC cleavage fluorescence; inhibition, % (no concentration beside the values); 330,000 compounds, 0.33% hits; AID 588478;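 active = mean of two replicates above 20%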;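 also: 0% = compound-free wells with enzyme and 100% = wells lacking proteasome; stock transfer was 100 nL into about 20 µL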
# Target sequence (Q9Y5K5 whole entry, looked up): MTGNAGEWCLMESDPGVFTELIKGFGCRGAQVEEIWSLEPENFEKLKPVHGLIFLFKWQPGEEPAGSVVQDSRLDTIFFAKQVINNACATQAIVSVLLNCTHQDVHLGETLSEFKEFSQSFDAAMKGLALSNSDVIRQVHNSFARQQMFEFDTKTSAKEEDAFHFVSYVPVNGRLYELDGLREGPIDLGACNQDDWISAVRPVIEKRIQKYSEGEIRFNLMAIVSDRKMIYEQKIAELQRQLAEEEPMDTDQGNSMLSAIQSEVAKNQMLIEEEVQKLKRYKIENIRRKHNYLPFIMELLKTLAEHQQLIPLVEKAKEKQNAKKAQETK
#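 Test system – human UCH37 enzyme supplied as purified proteasome complex · Incubation – 30 min preincubation with enzyme, 25 min cleavage at room temperature · Detection – AMC fluorescence from Ub-AMC cleavage, excitation 355 nm, emission 460 nm · Benchmarks – no-proteasome wells (full inhibition) and compound-free wells (no inhibition)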
# Beta apoptosis = beta cell apoptosis inhibition | INS-1E cytokine-induced death, ATP luminescence, 48 h; percent of positive-control rescue, neutral wells zero | protection from apoptosis, % (concentration not given with the values) | 300,000 compounds, 0.8% hits | AID 435005;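 active = all replicates at 75% or more, or half of them and the mean; inconclusive = half reach 75% but not the mean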;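 also: 0% = cytokine-treated negative control wells and 100% = positive control rescue; higher means more ATP so stronger rescue from cytokine killing; wells of about 40 µL received 100 nL stock; the first replicate is given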
# rRNA inh HTS = selective bacterial rRNA inhibition in E. coli; E. coli WT GFP vs humanized-ribosome RFP mutants, fluorescence, 24 h; stronger effect = lower value; DMSO median 0, no signal -100; GFP signal change (wild-type ribosome), % (test concentration not listed); 350,000 compounds, 1.6% hits; AID 720706;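 active = significant combined selectivity score with lowered wild-type GFP, culture density cut under 30%, mutant RFP and density less affected; inactive = any of these conditions unmet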; also: one replicate is shown; some compounds called inactive have numbers as strong as hits
# rRNA inh HTS OD600 = also measured in rRNA inh HTS; calls as there; OD600 change, %; measured here: OD600 growth;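 optical density of the mix in the first replicate; 0 = DMSO median and -100 = no signal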
# rRNA inh HTS RFP = second read-out of rRNA inh HTS, no call of its own (marks repeat the call); RFP signal change, %; measured here: RFP humanized mutant strains;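 first replicate; 0 = DMSO median and -100 = no signal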
# * = called active by the depositor; i = inactive; ? = inconclusive; · = not tested or not shown; & = joins results of further samples.
SMILES,FGF22 binding,MLL AF4-AF9 inh,Bfl-1 A1 inh,Ecoli growth,T cruzi inh,UCH37 DUB inh,Beta apoptosis,rRNA inh HTS,rRNA inh HTS OD600,rRNA inh HTS RFP
O=S(=O)(N/N=C\c1ccc2c(c1)OCO2)c1ccc(F)cc1,i,-3.6,0.5,·,-12.3,·,-3.7,1.5,2.7,-0.4
COc1cc(/C=C2\SC(=Nc3ccc(Cl)c(C(=O)O)c3)NC2=O)c(Br)c(Br)c1O,i,2.4,0.6,·,-8.6,·,·,13.0,-2.9,14.6
Cc1cccc2cc(CN(CCCN3CCOCC3)Cc3nnnn3C(C)(C)C)c(=O)[nH]c12,·,·,-0.2,0.709,-10.7,2.1,-4.4,7.3,10.5,-0.4
CN(C)CCNC(=O)Cn1nc(-c2ccc(Cl)cc2)ccc1=O,i,0.6,0.8,0.687,-2.8,-0.7,1.0,17.5,10.3,-4.2
Brc1cc2c(cc1C1Nc3ccccc3C3C=CCC31)OCO2 (centres undefined),·,·,0.4,0.704,-10.8,2.8,·,·,·,·
CCCCCc1nnc(NC(=O)CN2C(=O)C3CCCCC3C2=O)s1 (centres undefined),i,-0.3,0.8,0.695,10.4,3.6,-4.1,-0.5,3.5,-2.8
O=C1C=C(NCc2ccc(Cl)cc2Cl)C2(CCCCC2)O1,·,·,0.3,0.651,0.0,3.6,10.1,·,·,·
Cn1c(SCC(=O)N2CCc3ccccc3C2)nnc1-c1ccncc1,·,·,0.0,0.67,-0.4,3.0,-4.6,·,·,·
Cc1cc(C)c(NC(=O)CS(=O)CC(=O)NCCCc2ccccc2)c(C)c1 (centres undefined),i,3.4,0.0,0.645,-5.7,-1.0,2.1,-7.1,-3.8,-10.4
O=C(NNC1=NCCC1)c1cccc(S(=O)(=O)N2CCCC2)c1,i,0.8,0.2,0.678,-9.2,1.7,-2.2,6.1,-1.1,1.5
Cc1ccc(C)c(C(=O)CCC(=O)Nc2cccnc2)c1,·,·,-1.5,0.786,-0.9,1.1,-3.2,·,·,·
Brc1ccccc1-c1csnn1,i,1.1,-0.2,0.672,-10.9,1.8,1.3,2.8,10.2,-9.4
O=C(C1=C(O)C(=O)N(CCN2CCOCC2)C1c1cccc(F)c1)c1cc2ccccc2o1 (centres undefined),i,3.9,0.8,0.718,-7.3,11.0,-8.6,-2.6,4.1,3.8
Cc1nnc2ccc(-c3ccc(NS(=O)(=O)c4ccccc4[N+](=O)[O-])cc3)nn12,i,3.1,-0.4,0.69,·,6.1,-3.5,-2.0,5.7,4.4
Cn1nnc(C(O)CN2CCOCC2)n1 (centres undefined),·,·,-0.3,0.69,10.6,2.9,-6.3,·,·,·
COc1cccc(C(=O)Nc2ccc(NC(=O)C3C4C=CC(C4)C3C(=O)O)cc2)c1 (centres undefined),i,1.0,-2.5,0.68,-6.9,2.9,0.5,3.1,-1.8,1.1
CCc1c(C)sc(NC(=O)c2ccccc2[N+](=O)[O-])c1C(N)=O,·,·,0.5,0.681,0.4,2.2,-13.8,·,·,·
COc1ccc([N+](=O)[O-])cc1N(CC(O)CN1CCCCC1)S(=O)(=O)c1ccccc1 (centres undefined),i,10.5,-0.4,0.71,-14.6,2.0,5.6,7.5,2.7,3.0
COc1ccc(NCC(=O)NN=C2CCS(=O)(=O)c3ccc(F)cc32)cc1,i,3.0,0.3,0.686,·,0.7,-5.5,-2.9,7.9,1.2
Cc1csc2nc(O)c(C(=O)NCCCN3CCCC3=O)c(=O)n12,i,-12.4,2.2,0.653,-9.3,2.9,-3.7,0.9,3.0,-1.4
Cn1c(=O)n(C)c2cc(N3CCOCC3)c(NC(=O)c3ccc(F)cc3)cc21,i,-9.6,-0.6,0.634,-10.8,-122.4,4.4,1.5,1.8,1.1
COc1ccc(S(=O)(=O)N2CCC(C(=O)NCCc3ccc4c(c3)OCO4)CC2)cc1,·,·,0.3,0.697,-12.4,4.6,-4.4,·,·,·
COc1ccc(C(=O)C2CCCN(Cc3cccc4c3OCO4)C2)cc1OC (centres undefined),i,1.8,0.3,0.714,62.0*,2.9,5.7,-1.4,9.4,0.8
Cc1ccc(S(=O)(=O)N2CCCCC2)cc1C(=O)N1C(C)CCCC1C (centres undefined),i,2.8,0.6,0.704,·,-0.5,-2.2,-6.7,-15.6,-1.1
Cc1c(NC(=O)CSc2ncnc3ccccc23)c(=O)n(-c2ccccc2)n1C,i,0.5,-0.3,0.705,16.3,-0.6,-4.4,7.7,13.8,2.0
N=C1C(c2ccccc2)=C(O)CN1c1cccc(S(=O)(=O)N2CCOCC2)c1,i,-2.8,-0.1,0.709,-25.6,1.8,-0.2,7.1,6.2,-0.4
CCOC(=O)CNC(=O)Cn1cnc2c(nnn2-c2ccc(C)cc2)c1=O,·,·,0.5,0.752,-11.7,3.0,-3.4,·,·,·
N#Cc1cccc(-n2nnnc2-c2ccccn2)c1,·,·,0.5,0.7,-11.3,0.6,-1.8,·,·,·
O=C(NC(=S)NNC(=O)c1ccccc1O)c1ccccc1,i,-1.1,-0.3,0.577,3.5,5.2,·,-14.4,-36.7,-5.3
Cc1cc(C(F)F)n2nc(C(=O)Nc3ccc(F)cc3F)nc2n1,·,·,1.3,0.708,-6.2,-7.4,-2.3,·,·,·
OCCNc1nc(C2CC2)nc2c1nnn2Cc1ccccc1Cl,·,·,1.3,0.719,0.4,2.2,4.0,·,·,·
Cn1c(-c2c(N)n(-c3ccccc3)c3nc4ccccc4nc23)nc2ccccc21,·,·,0.4,0.682,52.3,-57.9,-1.0,·,·,·
CC(C)Nc1ncnc2c1nnn2Cc1ccccc1,·,·,-0.1,0.671,0.6,2.1,2.5,·,·,·
COc1cc(OC)c(C(=O)NC2CCCCCC2)cc1OC,·,·,-0.1,0.747,-8.6,7.4,2.5,·,·,·
O=C(OCC(=O)N1CCN(c2ccccc2)CC1)c1ccc(O)cc1O,i,-6.2,0.2,0.742,-8.5,2.6,3.6,6.1,6.7,1.9
COc1cc2c(cc1OC)C(SC)=NC(C)(C)C2,i,-10.5,-0.1,0.634,-1.1,-34.7,-6.7,-3.2,12.8,-4.2
COc1ccc(NC(=O)c2ccc(COCC(F)(F)C(F)F)cc2)cc1OC,·,·,-0.3,0.692,-6.5,4.1,-9.0,·,·,·
CC1CCCN(S(=O)(=O)c2ccc(NC(=O)C3CCN(C(=O)c4ccco4)CC3)cc2)C1 (centres undefined),i,2.9,0.7,0.666,-7.9,4.6,-1.2,-12.6,-15.7,-1.6
CCS(=O)(=O)Nc1ccc(Cc2ccc(NS(=O)(=O)CC)cc2)cc1,i,-6.7,0.3,0.727,-11.0,4.4,-2.3,-8.8,-17.5,-3.9
C[C@H](CO)N1C[C@H](C)[C@@H](CN(C)S(=O)(=O)c2cccs2)Oc2c(NS(=O)(=O)c3ccccc3)cccc2C1=O,i,-2.4&-1.4,0.2,0.756,·,2.5,-0.6,1.1&-3.2,-3.0&-5.3,-2.2&0.5
Cc1ccc(C2CC(c3cccs3)=NN2S(=O)(=O)c2ccc(C)cc2)cc1 (centres undefined),i,7.9,-3.0,0.735,9.7,-0.1,21.7,-2.2,-13.6,-6.8
CCCCCC(=O)N/N=C/c1ccc([N+](=O)[O-])o1,i,3.9,1.5,·,76.0*,·,44.2,5.9,-2.9,0.1
O=C(N/N=C1\C(=O)c2cccc3cccc1c23)c1ccc(O)cc1,i,-6.3,-0.8,0.708,17.1,9.1,7.8,12.4,5.7,3.8
CCOc1cccc(CN2CCC(CCC(=O)NC3CC3)CC2)c1O,i,-11.2,0.3,0.675,9.1,2.4,2.0,11.8,7.8,7.8
COc1cccc(CSc2ccc(S(=O)(=O)N3CCOCC3)cc2C(=O)NCC2CCCO2)c1OC (centres undefined),i,-4.6,-0.4,0.668,16.4,1.1,0.2,-30.8,29.9,0.0
Nc1nonc1-n1nnc(C(=O)N/N=C/c2cccc(Cl)c2)c1CSc1ccccc1,i,-2.6,0.1,·,3.9,·,-5.7,-2.4,4.9,11.6
CC(=O)NCC1CCCN(C(=O)c2oc3c(F)cccc3c2C)C1 (centres undefined),i,1.1,-1.0,0.698,-4.6,3.6,3.6,-0.8,11.0,-2.2
Cc1nc2c(cnn2-c2ccccc2Cl)c(=O)n1-c1ccc(N2CCC(C)CC2)cc1,·,·,1.2,0.693,-8.9,0.8,14.8,·,·,·
Cc1cc(Nc2ccc(F)cc2)nc(N)n1,·,·,0.0,0.704,-14.3,3.3,2.6,·,·,·
CC(=O)Nc1ccc(NC(=O)CSCc2cnn(-c3ccccc3)c2-n2cccc2)cc1,·,·,0.2,0.686,2.4,6.9,-2.2,·,·,·
Nc1ccccc1SC1CC(=O)N(c2ccc(Cl)c(Cl)c2)C1=O (centres undefined),i,0.5,0.3,0.669,-16.0,5.0,38.6,-5.5,-0.1,-0.2
Cc1cccc(NS(=O)(=O)c2cccc(C(=O)Nc3cccc(C(=O)O)c3)c2)c1,i,6.3,-1.8,0.703,-14.8,6.7,-3.9,11.9,12.2,2.9
CCOC(=O)n1c(=O)oc2ccc(Cl)cc21,·,·,0.4,0.671,-9.5,1.0,9.7,·,·,·
COc1ccc(C(=O)OCC(=O)NC(C)CCc2ccccc2)cc1 (centres undefined),i,0.5,0.2,0.675,-7.8,0.7,-5.1,-4.6,-6.5,-0.1
Cc1ccc(C(=O)N2CCCC(N(C)Cc3ccccc3)C2)s1 (centres undefined),i,-2.2,1.2,0.691,20.1,5.3,-10.1,3.3,10.0,1.1
CC(C)CC1NC(=O)N(CC(=O)N2CCN(S(=O)(=O)c3ccc(Cl)cc3)CC2)C1=O (centres undefined),·,·,1.1,0.714,-9.2,8.0,-3.1,·,·,·
CC[C@@H](C)C(NC(=O)OC(C)(C)C)c1cn([C@@H](CCC(=O)OC(C)(C)C)C(=O)N2CCN(C(=O)OC(C)(C)C)CC2)nn1 (some centres undefined),i,-1.5,-0.6,·,33.9,3.3,4.3,7.5,3.3,-2.3
O=C1C=CC(=O)N1c1ccccc1N1C(=O)C=CC1=O,i,-2.1,·,0.658,·,-0.6,·,36.1,21.4,-1.2
CCCCn1c(N)c(NCC)c(=O)[nH]c1=O,·,-3.5,·,0.66,·,-12.0,·,13.6,12.5,-0.2
CSC(=NCCCN1CCOCC1)NS(=O)(=O)c1cccs1,i,-2.2,0.1,0.668&0.728,-7.7,-2.4&-1.6,-0.9,3.2,9.7,-2.7
COc1ccc(COC(=O)c2c(C)nn(-c3ccccc3)c2Cl)cc1,i,-2.9,0.4,0.706,14.5,1.3,-8.9,-17.6,-16.9,0.0
OC(CNCCc1ccc(Cl)cc1)COc1cc(Cl)ccc1Cl (centres undefined),i,1.6,0.1,0.556,?,0.3,-3.2,-69.7,-80.8,-22.6
O=C1NC2=C(CCc3ccccc32)C(c2ccccc2)N1 (centres undefined),i,-7.2,0.8,0.652,-14.6,-28.7,7.9,75.2,-14.3,17.7

# Some of the compounds tested (hit frequency here may not be typical).
